Bioassay records as filed in PubChem BioAssay.
GLA inh pH 4.5: blocks human alpha-galactosidase A at pH 4.5; P06280; purified enzyme, 4-MU-alpha-Gal fluorescence, pH 4.5; activity change, negative = inhibition, % at 105 µM; 230,000 tested, under 10 active; AID 1467; inconclusive = small, poorly fitted or top-dose-only inhibition, or a rising curve; inactive = flat fitted curve, though single readings scatter; no compound was filed as active;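 further: 0% = full activity with enzyme and -100% = basal without enzyme; dose as in the result columns while the protocol names 77 µM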
Rango-impB inh: Rango-importin beta binding inhibition; Q14974; Rango CFP/YFP FRET sensor + importin beta, 45 min; Potency, µM (doses to about 92.2 µM), for the others: at the highest dose inhibition of complex formation; actives 0.031% (n = 340,000); AID 540263; active = rising FRET ratio curve, often small or poorly fitted; inconclusive = mostly compound fluorescence or quenching in the first reads; inactive = flat curves in all reads;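 further: potency means the concentration at half of the fitted maximal effect; 0% = DMSO wells and 100% = buffer wells lacking importin beta; nearly all actives have a fitted effect of over 15% in size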
Target sequence (Q14974 whole entry, looked up): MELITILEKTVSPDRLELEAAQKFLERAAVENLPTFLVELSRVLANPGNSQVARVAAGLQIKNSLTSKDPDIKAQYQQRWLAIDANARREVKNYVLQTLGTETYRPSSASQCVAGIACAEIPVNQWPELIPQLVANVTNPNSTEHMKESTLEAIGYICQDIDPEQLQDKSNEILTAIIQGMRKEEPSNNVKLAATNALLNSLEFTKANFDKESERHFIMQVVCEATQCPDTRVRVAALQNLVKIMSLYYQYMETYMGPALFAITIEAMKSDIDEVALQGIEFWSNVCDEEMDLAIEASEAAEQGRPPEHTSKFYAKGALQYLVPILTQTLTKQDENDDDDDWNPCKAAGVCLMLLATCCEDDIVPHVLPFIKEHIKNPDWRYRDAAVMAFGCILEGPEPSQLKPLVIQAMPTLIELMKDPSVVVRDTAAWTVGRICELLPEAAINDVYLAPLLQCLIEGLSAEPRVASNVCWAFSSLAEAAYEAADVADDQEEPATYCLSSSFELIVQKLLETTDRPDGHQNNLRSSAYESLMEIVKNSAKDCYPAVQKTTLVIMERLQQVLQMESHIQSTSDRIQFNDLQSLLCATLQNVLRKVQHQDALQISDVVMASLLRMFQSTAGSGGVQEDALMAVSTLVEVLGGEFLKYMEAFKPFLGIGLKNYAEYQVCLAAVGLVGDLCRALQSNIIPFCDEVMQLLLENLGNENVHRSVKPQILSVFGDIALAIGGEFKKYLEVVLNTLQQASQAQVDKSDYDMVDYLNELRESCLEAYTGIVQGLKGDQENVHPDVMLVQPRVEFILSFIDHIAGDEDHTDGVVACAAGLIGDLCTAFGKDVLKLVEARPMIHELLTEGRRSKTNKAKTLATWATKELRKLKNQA
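FRET biosensor (snurportin 1 IBB flanked by EYFP and cerulean), 50 nM, with compound 5 min, then 0.125 microM importin beta in PBS, 1 mM DTT, 0.02% Tween-20, 0.1% BSA. CFP/YFP ratio read after 45 min at room temperature; pre-read flags interference.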
miR-21 reporter: miR-21 reporter, rising signal. HeLa miR-21 FLuc reporter, luciferase, 48 h. 340,000 tested, under 10 active. Potency, µM (highest dose often 38.3 µM), inactives show top-dose reporter change, positive = more light; active = well fitted rising curve with a large enough effect; inconclusive = small, poorly fitted or top-dose-only effect; inactive = no such curve, though single readings can be large or run the other way;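 further: % of control where 0% means no effect; miR-21 action dims this reporter so a rising signal means less miR-21 action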
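HeLa cells endogenously expressing miR-21, stably carrying CMV-driven firefly luciferase with a downstream miR-21 binding site, 2000 cells/well. Titrations up to approximately 40 uM, 48 hours; luciferase luminescence read.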
Rango release inh: inhibitors of RanGTP-induced Rango-importin beta complex dissociation. Biochemical FRET Rango-importin beta, RanGTP-induced dissociation. Potency, µM (highest dose often 46.1 µM), without a hit: at the highest dose activity change, negative = inhibition. actives 0.071% (n = 340,000). O95149+P62826; active means falling FRET ratio curve, often poorly fitted, with flat reads before Ran was added; inconclusive means other falling curves, or compound fluorescence or quenching; inactive means flat or rising ratio curve;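 further: potency means the concentration at half of the fitted maximal effect; % of control where 0% means no effect; nearly all actives have a fitted effect of over 45% in size; -100% = wells without RanGTP and RCC1; the record marks most hits as doubtful in a second field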
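Quantitative HTS using a FRET biosensor: 0.1 uM Rango, 0.25 uM importin beta, 0.6 uM Ran, 2 mM GTP, 0.2 uM RCC1 final, PBS with DTT, Tween-20 and BSA. Post-read taken 45 min after Ran addition.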
Starred values were filed as active, the others as inactive; ? = inconclusive; . = no result given. The list is partial (hit frequency here may not be typical).

SMILES | GLA inh pH 4.5 | Rango-impB inh | miR-21 reporter | Rango release inh
O=S(=O)(c1ccccc1)c1nc(Cc2ccccc2)oc1N1CCOCC1 | . | 0.9% | -1% | 3%
CC1CC(C)CN(C(=O)COC(=O)c2cc([N+](=O)[O-])ccc2N2CCOCC2)C1 (stereo unspecified) | . | -0.1% | . | -6%
O=C1c2ccccc2NC(c2ccccc2)N1Cc1ccccc1 (stereo unspecified) | . | -4.6% | . | 0%
CCOC(=O)C1=CN(CC2CCCO2)C=C(C(=O)OCC)C1c1ccccc1C(F)(F)F (stereo unspecified) | ? | ? | 1% | ?
CCOc1ccc(N2C(=O)CC(S/C(N)=N/N=C/c3cccs3)C2=O)cc1 (stereo unspecified) | -2 | 1.3% | -9% | 21%
Cn1c(=O)c2c(C(=O)O)cc(-c3ccccc3)nc2n(Cc2ccccc2)c1=O | . | ? | -3% | ?
COc1ccc(C(C(=O)NC2CCCCC2)N(C(=O)Cc2c[nH]c3ccccc23)c2ccc(NC(C)=O)cc2)cc1OC (stereo unspecified) | -5 | -4.5% | -6% | -13%
COc1ccccc1NC(=O)COC(=O)c1ccccc1OCC(=O)Nc1ccc(SC(F)F)cc1 | -10 | -2.4% | -15% | 1%
COc1ccc(C(=O)c2nc3c(n2O)CCCCC3)cc1 | -4 | 3.4% | -38% | 2%
CC12CCC(C(=O)N(CC(O)CN3CCCCCC3)C1=O)C2(C)C (stereo unspecified) | -6 | 6.6% | -7% | -4%
CC(=O)c1cnc(Oc2cc(Cl)ccc2Cl)nc1C | . | 0.3% | -5% | -6%
CCOC(=O)c1ccc(S(=O)(=O)N2CCN(C(=O)c3cccc(S(=O)(=O)N4CC(C)OC(C)C4)c3)CC2)cc1 (stereo unspecified) | . | 0.8% | . | -19%
O=C(c1nc2ccccn2c1CNCCCn1ncc2ccccc21)N1CCOCC1 | 7 | -6.8% | -1% | 3%
COc1ccc2c(-c3ccc(S(N)(=O)=O)cc3)c(-c3ccc(S(C)(=O)=O)cc3)sc2c1 | . | -0.1% | . | 14%
CC1CCCCN1CC(=O)Nc1sccc1C#N (stereo unspecified) | -4 | 0.5% | 1% | -8%
Cn1c(=O)c2c(nc(N3CCCCCC3)n2CCSc2nc3ccccc3o2)n(C)c1=O | -2 | -1.2% | -5% | -1%
Cc1ccc(NC(=O)c2csc(-c3ccccc3)c2C)cc1 | -3 | 1.8% | -32% | 1%
O=C1NC2(CCCCC2)N=C1c1ccc(Br)cc1 | -4 | -3.3% | -16% | 14%
CC(=O)CC1(O)C(=O)Nc2ccccc21 (stereo unspecified) | 1 | -0.9% | 1% | 3%
C[C@H](NC(=O)c1ccc(Cl)cc1)C(=O)OCn1nnc2ccccc2c1=O | . | 0.3% | . | 1%
COCc1c(C(=O)OCC(=O)N2c3ccccc3NC(=O)C2(C)C)oc2ccccc12 | -6 | 4.4% | 1% | 16%
COc1cccc(NC(=O)CN(c2ccc(C)cc2)S(=O)(=O)c2c(C)nn(C)c2C)c1 | -6 | -5.2% | 5% | 7%
COc1ccc(OCC(=O)Nc2cc(NC(=O)COc3ccc(OC)cc3)cc(C(=O)O)c2)cc1 | . | 3.3% | -1% | 2%
Cc1ccc(C23CC4CC(CC(C(=O)NC(C)C(=O)O)(C4)C2)C3)cc1 (stereo unspecified) | . | -0.3% | 0% | -2%
O=C(CN1C(=O)S/C(=C\c2ccccc2Cl)C1=O)NC1C=CS(=O)(=O)C1 (stereo unspecified) | . | -1.0% | -1% | 13%
COc1ccc(CCN(C)Cc2nc(Cc3ccc(OC)c(OC)c3)no2)cc1OC | . | -3.4% | 2% | -5%
Cc1ccc(C(=O)NCC(=O)OCC(=O)c2ccccc2)s1 | . | 3.3% | . | 15%
Cc1ccc(-c2nnn(CC(=O)N(CCCO)C(C(=O)NC3CCCC3)c3ccc(F)cc3)n2)o1 (stereo unspecified) | . | 1.2% | 0% | 0%
Cc1ccc(NN2C(=O)C=C(c3ccc(Cl)cc3)C2=O)cc1 | 4 | 0.3% | 21% | -1%
Cc1oc(-c2ccccc2Cl)nc1CS(=O)CC(=O)NCc1ccc2c(c1)OCO2 (stereo unspecified) | . | 6.3% | -4% | -8%
O=C(CNc1ccc(Br)cc1)c1ccccc1 | -6 | -0.6% | -18% | 5%
Cc1ccc(S(=O)(=O)CC#CCOC(=O)c2ccc([N+](=O)[O-])cc2)cc1 | 2 | . | 13% | .
COC(=O)c1c(NC(=S)NC(=O)c2ccco2)sc2c1CCCC2 | 4 | -0.8% | -4% | 9%
Cc1cc(C)nc(/N=C(\N)Nc2cc([N+](=O)[O-])ccc2C)n1 | 8 | 0.1% | -2% | -3%
COc1ccccc1-n1c(C)c(C(C)=O)c2cc(O)ccc21 | . | 2.0% | 15% | 0%
Cc1cc(C)nc(NCCCc2ccccc2)n1 | 5 | -0.1% | -13% | 8%
CCOc1ccc(NC(=O)C2CC(=O)N(c3cc(C)cc(C)c3)C2)cc1 (stereo unspecified) | -21 | 0.9% | -5% | -8%
O=C(O)/C=C(\Oc1ccccc1)C1(O)CCCCC1 | -11 | ? | -1% | 10%
Cc1cccc([C@@H]2[C@@H]3C(=O)N(Cc4ccccc4)C(=O)[C@@H]3[C@]3(C)C(=O)N(c4cccc(F)c4)C(=O)N23)c1 | . | -1.3% | . | -11%
COc1ccc(C2=Nc3cccc4cccc(c34)N2)cc1 | -3 | 0.4% | -5% | -12%
Cc1[nH]nc2c1C(c1ccc(N(C)C)cc1)C1=C(CC(C)(C)CC1=O)N2 (stereo unspecified) | 1 | 3.5% | -1% | 2%
CC(C)OCCCNCC(O)c1ccccc1 (stereo unspecified) | 3 | -1.9% | -11% | 1%
Cc1cccc(N(C(=O)CNC(=O)c2ccco2)C(C(=O)NC2CCCC2)c2cccnc2)c1 (stereo unspecified) | 3 | -0.6% | -1% | -4%
CCN(CC)C(=O)c1ccc(-c2cccs2)s1 | -2 | 2.9% | -81% | ?
O=C(c1cc(COc2ccc(F)cc2F)on1)N1CCCC(c2ccccc2)C1 (stereo unspecified) | -9 | -0.1% | -13% | 1%
CCOC(=O)c1cc(C#N)c(Oc2ccccc2OC)nc1-c1ccccc1 | -22 | -2.6% | 13% | -1%
CCN(CC(=O)Nc1ccc(S(=O)(=O)N2CCCC2)cc1)Cc1ccccc1 | . | -3.3% | . | 2%
Cc1ccc(NC(=O)COC(=O)/C=C/c2cccs2)cc1 | -9 | 0.8% | -9% | -7%
CC(C)(C)n1ncc2c(=O)n(CC(=O)N3CCCc4ccccc43)cnc21 | 6 | 0.0% | -9% | -11%
CC1(C)Cc2ccccc2-c2nc(NCCCO)[nH]c(=O)c21 | 3 | -0.3% | 16% | 6%
c1cncc(C(c2nnnn2C2CCCCC2)N2CCN3CCCC3C2)c1 (stereo unspecified) | 4 | ? | -7% | 10%
O=S(=O)(NCCN1CCOCC1)c1ccc(F)c(Cl)c1 | . | 2.6% | 3% | -3%
O=C(c1ccc2c(c1)OCO2)C1CCCN(Cc2cn[nH]c2-c2cccc(F)c2)C1 (stereo unspecified) | -1 | -2.4% | 7% | -2%
CC1(C)CC(NC(=O)c2cccc(F)c2)CC(C)(C)N1 | . | -5.2% | 4% | 9%
CC(Sc1ccc(S(=O)(=O)N2CCN(C)CC2)cn1)C(=O)Nc1cccc(Cl)c1Cl (stereo unspecified) | . | 1.1% | . | 0%
CCOC(=O)c1cnc(SCC(=O)c2ccc(Cl)cc2)nc1N | 9 | 4.0% | -30% | 0%
COc1cc(NC2c3ccccc3C(=O)N2Cc2ccc3c(c2)OCO3)cc(OC)c1 (stereo unspecified) | -12 | -0.9% | -10% | -12%
Cc1ccc(NS(=O)(=O)c2cc(OCC(N)=O)c(C)cc2Cl)cc1 | -17 | 4.8% | 3% | 22%
Cc1ccc(C(=O)N2CCN(c3ccc(NC(=O)c4cccs4)cc3)CC2)cc1 | . | -0.3% | 21% | 2%
CCOC(=O)c1nc(C)sc1-c1ccnn1S(=O)(=O)c1ccc(C)cc1 | 2 | 4.2% | -12% | 12%
Following part.
SMILES | GLA inh pH 4.5 | Rango-impB inh | miR-21 reporter | Rango release inh
CC[N+]1(C)[C@@H]2CC[C@H]1CC(OC(=O)[C@H]1CCC(C(=O)OC3C[C@H]4CC[C@@H](C3)[N+]4(C)CC)(c3ccccc3)c3ccccc31)C2 (stereo partly specified) | . | -0.2% | . | -19%
CCc1ccc2[nH]c(=O)c(CN(Cc3ccco3)S(=O)(=O)c3ccc4c(c3)OCCO4)cc2c1 | 6 | 0.0% | -3% | -3%
COc1ccc(OC)c(CNC(=O)COc2cc(=O)n(C)c3ccccc23)c1 | . | -0.6% | . | -8%
Cc1cccc(N(CC(=O)NCc2ccc3c(c2)OCO3)C(=O)CCC(=O)Nc2ccccn2)c1C | 2 | 0.1% | 0% | ?
O=C(NCCc1ccc(Cl)cc1)C1CCN(S(=O)(=O)c2cccc3nonc23)CC1 | -7 | -1.1% | 1% | -11%
CC(C)c1ccc(S(=O)(=O)N2CCN(C(=O)c3cc([N+](=O)[O-])ccc3N3CCOCC3)CC2)cc1 | . | ? | 0% | 7%
Cc1ccc(C(=O)NC(=S)NNC(=O)c2ccccc2)cc1 | . | 0.4% | -3% | 17%
Cc1ccc(S(=O)(=O)N(C)C)cc1NC(=O)COC(=O)Cc1ccc(Br)cc1 | ? | -0.2% | 1% | -5%
O=C(NCCCCCNC(=O)c1ccco1)c1ccco1 | -12 | 0.0% | -3% | -1%
O=C(Nc1ccc2ncccc2c1)Nc1ccc2ncccc2c1 | 5 | -2.1% | -40% | 0%
Cc1nn(-c2ccccc2)c(N2CCCC2)c1/C=N/O | 2 | 3.3% | -6% | 9%
CCOc1ccc(C(=O)NCC(=O)OCc2cc([N+](=O)[O-])cc3c2OCOC3)cc1OCC | 0 | 6.4% | -1% | 2%

Laid out differently: entries from further up.
COc1cccc(NC(=O)CN(c2ccc(C)cc2)S(=O)(=O)c2c(C)nn(C)c2C)c1
  GLA inh pH 4.5: -6
  Rango-impB inh: -5.2%
  miR-21 reporter: 5%
  Rango release inh: 7%
COc1ccc(OCC(=O)Nc2cc(NC(=O)COc3ccc(OC)cc3)cc(C(=O)O)c2)cc1
  GLA inh pH 4.5: .
  Rango-impB inh: 3.3%
  miR-21 reporter: -1%
  Rango release inh: 2%
Cc1ccc(C23CC4CC(CC(C(=O)NC(C)C(=O)O)(C4)C2)C3)cc1 (stereo unspecified)
  GLA inh pH 4.5: .
  Rango-impB inh: -0.3%
  miR-21 reporter: 0%
  Rango release inh: -2%
O=C(CN1C(=O)S/C(=C\c2ccccc2Cl)C1=O)NC1C=CS(=O)(=O)C1 (stereo unspecified)
  GLA inh pH 4.5: .
  Rango-impB inh: -1.0%
  miR-21 reporter: -1%
  Rango release inh: 13%

Later entries
SMILES | GLA inh pH 4.5 | Rango-impB inh | miR-21 reporter | Rango release inh
CSc1nsc(SCC(=O)Nc2ccccc2C(N)=O)n1 | . | -5.5% | -24% | 7%
CC(=O)NCC(=O)N(c1c(C)n(C)n(-c2ccccc2)c1=O)C1(C(=O)NC2CCCC2)CCCCC1 | -1 | -0.9% | -2% | -11%
OC(CNCCc1ccc(C(F)(F)F)cc1)COc1cccc2ccccc12 (stereo unspecified) | -13 | 1.1% | -5% | 25%
CCOC(=O)C1(Cc2ccccc2)CCN(Cc2ccon2)CC1 | -11 | 1.0% | -1% | 1%

Single records, from the list above. Screens in order: GLA inh pH 4.5 | Rango-impB inh | miR-21 reporter | Rango release inh
CCOC(=O)C1(Cc2ccccc2)CCN(Cc2ccon2)CC1 as listed: -11 | 1.0% | -1% | 1%
CSc1nsc(SCC(=O)Nc2ccccc2C(N)=O)n1 as listed: . | -5.5% | -24% | 7%
OC(CNCCc1ccc(C(F)(F)F)cc1)COc1cccc2ccccc12 (stereo unspecified) as listed: -13 | 1.1% | -5% | 25%
CC(=O)NCC(=O)N(c1c(C)n(C)n(-c2ccccc2)c1=O)C1(C(=O)NC2CCCC2)CCCCC1 as listed: -1 | -0.9% | -2% | -11%
